# LASV entry inh – blocks Lassa virus binding to or entry into cells; 300,000 compounds, 1.2% hits; Lassa virus pseudotype entry inhibition, cell reporter; control for the full effect not named in the record; Potency, µM (titrated, usually from 37.9 µM), for the others: top-dose activity change, negative = inhibition, usual class: inhibitors; AID 540256; active means well fitted inhibition curve with a large enough effect; inconclusive means small, poorly fitted or top-dose-only effect, or effect the other way; inactive means flat fitted curve, though single readings scatter; tested in HEK293 cells; note: nearly all actives have a fitted effect of over 50% in size; luciferase read-out
# 2A StopGo – lowers the luciferase signal of an FMDV 2A StopGo reporter; Potency, µM (series often up to 57.9 µM), inactives show at the top dose signal change, negative = less light; human cells with a luciferase reporter of 2A StopGo recoding; control for the full effect not named in the record; 410,000 compounds, 1.2% hits; active = well fitted falling curve with a large enough effect; inconclusive = small, poorly fitted or top-dose-only effect; inactive = no such curve, though single readings can be large or run the other way; tested in HEK293T cells; note: nearly all actives have a fitted effect of over 45% in size; luciferase light after 4 h
# * hit, by the source's call; ? = inconclusive; [ ] = another dose, or the depositor's remark. % is set by controls: 0 for no effect and ±100 for the full control effect; potency is the fitted concentration of half-maximal effect. Some of the compounds tested; rates above refer to the full screens.
1) CCCn1cc(S(=O)(=O)c2cccc(Cl)c2)c(=O)c2cc(F)c(N3CCN(CC)CC3)cc21
2) CCCn1c2ccccc2c2cnn(CC(=O)N(CCCOC)Cc3ccco3)c(=O)c21
3) COc1ccc(Cl)cc1NC(=O)Cn1cc(S(=O)(=O)Cc2cccc(Cl)c2)c2ccccc21
4) O=C(NC1CCCCC1)c1ccc(Cn2c(SCc3ccccc3)nc3cccnc32)cc1
5) CCCn1cc(S(=O)(=O)c2ccccc2)c(=O)c2cc(F)c(N3CCCC(C)C3)cc21 (stereo not drawn)
6) Cc1ccc2c(c1)N(CC(=O)NCc1ccccc1Br)C(=O)c1cccnc1O2
7) COc1ccccc1CNC(=O)C1CCCN(c2nn3cc(-c4ccc(F)cc4)nc3s2)C1 (stereo not drawn)
8) O=C(NCc1ccccc1)c1ccc(CSc2nc3cccnc3n2Cc2cccc(F)c2)cc1
9) O=C(Nc1ccc(F)c(Cl)c1)N1CCC(CN2CCc3ccccc3C2)CC1
10) COc1ccc(Cl)cc1S(=O)(=O)N1CCN(C(=O)c2cc(-c3ccc(Br)cc3)n[nH]2)CC1

entry no.,1,2,3,4,5,6,7,8,9,10
2A StopGo,23.1%,-23.9%,27.2%,-5.4%,-20.2%,-5.4%,-27.9%,0.0%,13.7%,?
LASV entry inh,1.5%[46.1 µM],-26.3%[46.1 µM],?,2.2%[46.1 µM],-16.1%[46.1 µM],?,16.9%[46.1 µM],?,-3.1%[46.1 µM],?

11) COCCCNC(=O)c1ccc(Cn2c(SCc3ccc(F)cc3)nc3cccnc32)cc1
12) COc1ccc(-c2cn3nc(N4CCC(C(=O)Nc5ccccc5OC)CC4)sc3n2)cc1
13) Cc1cc(C)c(NS(=O)(=O)c2ccc3c(c2)CC(C)N3C(=O)C2CCC2)c(C)c1 (stereo not drawn)
14) O=C(Cn1c(-c2cccs2)cc2ccccc21)N1CCN(c2ccc(F)cc2)CC1
15) Cn1cc(S(=O)(=O)c2ccc(Cl)cc2)c(=O)c2cc(F)c(N3CCOCC3)cc21
16) CC(=O)c1ccc(NS(=O)(=O)c2ccc3[nH]c4c(c3c2)CCCC4)cc1
17) CC(=O)c1cccc(N2C(=O)CN(S(C)(=O)=O)CC2(C)C(=O)NC2CCCC2)c1 (stereo not drawn)
18) CCc1ccc(CNC(=O)C2CCN(c3nn4cc(-c5ccc(F)cc5)nc4s3)CC2)cc1
19) COc1ccc(S(=O)(=O)c2cn(C)c3cc(N4CCOCC4)c(F)cc3c2=O)cc1
20) COc1ccc(CCNC(=O)Cn2cc(S(=O)(=O)Cc3cccc(Cl)c3)c3ccccc32)cc1OC

entry no.,11,12,13,14,15,16,17,18,19,20
2A StopGo,0.0%,-15.5%,?,-20.2%,-16.7%,67.1%[activator],-4.0%,36.3%[activator],-4.2%,-19.8%
LASV entry inh,-5.9%[46.1 µM],23.1%[46.1 µM],-11.5%[46.1 µM],?,-6.7%[46.1 µM],-3.0%[46.1 µM],13.2%[46.1 µM],11.9%[46.1 µM],-3.8%[46.1 µM],?

# In another format: results already given.
12: COc1ccc(-c2cn3nc(N4CCC(C(=O)Nc5ccccc5OC)CC4)sc3n2)cc1
  2A StopGo: -15.5%; LASV entry inh: 23.1%[46.1 µM]
13: Cc1cc(C)c(NS(=O)(=O)c2ccc3c(c2)CC(C)N3C(=O)C2CCC2)c(C)c1 (stereo not drawn)
  2A StopGo: ?; LASV entry inh: -11.5%[46.1 µM]

# (listing goes on)
21) Cc1cc(Nc2cccc(Cl)c2)nc2ccc(NC(=O)COc3ccc(Cl)cc3)cc12
22) CN(CC(=O)Nc1cccc(C(F)(F)F)c1)S(=O)(=O)c1ccc2[nH]c3c(c2c1)CCCC3
23) CCCn1c2ccccc2c2cnn(CC(=O)NC(CCSC)C(=O)OC)c(=O)c21 (stereo not drawn)
24) COC(=O)c1ccc(NC(=O)C(c2ccccc2)N2Cc3ccccc3C2=O)cc1 (stereo not drawn)
25) Cc1ccc(Cl)cc1NC(=O)COCc1cc(-c2ccco2)on1
26) CC1=C(C(=O)NCc2cccc(Br)c2)C2(CCCCC2)OC1=O
27) Cc1cc(C)cc(NC(=O)C(Cc2ccccc2)N2Cc3ccccc3C2=O)c1 (stereo not drawn)
28) CCOC(=O)c1ccc(NS(=O)(=O)c2cc3c(cc2C)n(C)c(=O)c(=O)n3C)cc1
29) CCCn1cc(S(=O)(=O)c2ccc(CC)cc2)c(=O)c2cc(F)c(N(CC)CC)cc21
30) Cc1ccc(CNC(=O)C2CCN(c3ncnc4c3nc3n4CCCCC3)CC2)cc1

entry no.,21,22,23,24,25,26,27,28,29,30
2A StopGo,-18.4%,-23.3%,-8.9%,1.2%,4.1%,-28.7%,5.1%,-12.6%,-13.2%,-2.1%
LASV entry inh,-2.8%[46.1 µM],2.8%[46.1 µM],25.1%[46.1 µM],-0.4%[46.1 µM],-2.7%[46.1 µM],12.3%[46.1 µM],4.5%[46.1 µM],1.6%[46.1 µM],-2.5%[46.1 µM],15.8%[46.1 µM]

31) COc1ccc(Nc2cc(C)c3cc(NC(=O)c4ccccc4Cl)ccc3n2)cc1
32) Cc1ccccc1-n1c(SCC(=O)Nc2ccc(Cl)cc2F)nnc1-c1cc2occc2n1C
33) Fc1ccc(Nc2ncnc3c2nc2n3CCCC2)cc1
34) CCc1ccc(NC(=O)C2CCCN(c3nn4cc(-c5ccc(OC)cc5)nc4s3)C2)cc1 (stereo not drawn)
35) CSc1ncc(C(=O)Nc2cccc(C)c2C)c(-c2ccccc2)n1
36) Cc1cccc(Cn2cc(S(=O)(=O)c3ccccc3)c(=O)c3cc(F)c(N4CCOCC4)cc32)c1
37) CCc1cccc(NC(=O)CSc2nnc(-c3cc4occc4n3C)n2-c2ccccc2C)c1
38) CC(C)c1ccc(NC(=O)c2ccc(CN3CC(=O)N4CCCCC4C3=O)cc2)cc1 (stereo not drawn)
39) Cc1ccc(Cn2cc(S(=O)(=O)c3cccc(Cl)c3)c(=O)c3cc(F)c(N4CCCCC4)cc32)cc1
40) COc1cc(OC)c(NC(=O)C(CC(C)C)N2Cc3ccccc3C2=O)cc1Cl (stereo not drawn)

entry no.,31,32,33,34,35,36,37,38,39,40
2A StopGo,?,-2.1%,33.3%[activator],-14.8%,-18.7%,-29.4%,4.2%,-23.9%,9.4%,7.5%
LASV entry inh,?,-12.8%[46.1 µM],?,-5.7%[46.1 µM],8.6%[46.1 µM],?,-25.7%[46.1 µM],12.0%[46.1 µM],25.2%[46.1 µM],-13.6%[46.1 µM]

41) COc1ccc(-c2noc(N3CCN(c4ccc(Cl)cc4)CC3)n2)cc1OC
42) CCc1ccccc1Nc1ncnc2c1nc1n2CCCC1
43) COc1cccc(N2CCN(S(=O)(=O)c3ccc4[nH]c5c(c4c3)CCCC5)CC2)c1
44) Cc1ccc(NC(=O)CSc2nnc(-c3cc4occc4n3C)n2-c2ccccc2C)cc1F
45) CCOc1ccc(CCNC(=O)Cn2c(-c3cccs3)cc3ccccc32)cc1OCC
46) O=c1c(S(=O)(=O)c2ccccc2)cn(Cc2ccccc2)c2cc(N3CCCC3)c(F)cc12
47) CCc1ccc(CNC(=O)c2ccc(-n3c(C)cc4c3CCC(C)C4)cc2)cc1 (stereo not drawn)
48) CCn1cc(S(=O)(=O)c2cc(C)cc(C)c2)c(=O)c2cc(F)c(N3CCN(c4ccccc4)CC3)cc21
49) COc1cc(OC)cc(C(=O)Nc2ccc3nc(Nc4cccc(C(F)(F)F)c4)cc(C)c3c2)c1
50) CCS(=O)(=O)N1CC(=O)N(c2ccccc2C)C(C)(C(=O)NC2CCCCC2)C1 (stereo not drawn)

entry no.,41,42,43,44,45,46,47,48,49,50
2A StopGo,-25.8%,12.1%,-13.7%,-11.4%,-20.7%,1.1%,-21.5%,2.0%,-14.2%,3.7%
LASV entry inh,18.5%[46.1 µM],4.2%[46.1 µM],-21.1%[46.1 µM],-6.1%[46.1 µM],-5.5%[46.1 µM],23.2%[46.1 µM],?,-3.1%[46.1 µM],-25.9%[46.1 µM],4.0%[46.1 µM]

# Reprinted from the part before: four compounds; new compounds follow.
47) CCc1ccc(CNC(=O)c2ccc(-n3c(C)cc4c3CCC(C)C4)cc2)cc1 (stereo not drawn)
48) CCn1cc(S(=O)(=O)c2cc(C)cc(C)c2)c(=O)c2cc(F)c(N3CCN(c4ccccc4)CC3)cc21
49) COc1cc(OC)cc(C(=O)Nc2ccc3nc(Nc4cccc(C(F)(F)F)c4)cc(C)c3c2)c1
50) CCS(=O)(=O)N1CC(=O)N(c2ccccc2C)C(C)(C(=O)NC2CCCCC2)C1 (stereo not drawn)
51) CCCn1c2ccccc2c2cnn(CC(=O)NCCc3ccc(OCC)c(OCC)c3)c(=O)c21
52) Cc1ccc(C(=O)NC2=NC(c3ccc(C)cc3)CC(=O)N2)cc1 (stereo not drawn)
53) CC(C(=O)Nc1ccc(OC(F)(F)F)cc1)N1Cc2ccccc2C1=O (stereo not drawn)
54) O=C(Cn1c(-c2cccs2)cc2ccccc21)N1CCN(c2ccccc2F)CC1
55) CSc1ncc(C(=O)N2CCN(c3cc(C)ccc3C)CC2)c(C)n1
56) CCOc1ccc(C2CC(=O)NC(NC(=O)c3cccc(Cl)c3)=N2)cc1 (stereo not drawn)
57) O=C(COCc1cc(-c2cccs2)on1)Nc1cc(C(F)(F)F)ccc1Cl
58) CCS(=O)(=O)N1CC(=O)N(c2cccc(Cl)c2C)C(C)(C(=O)NC2CCCCC2)C1 (stereo not drawn)
59) Cc1cc(C)cc(NC(=O)CSc2nnc(-c3cc4occc4n3C)n2-c2ccccc2C)c1
60) CCc1cccc(C)c1NC(=O)COCc1cc(-c2ccc3c(c2)OCO3)on1

entry no.,47,48,49,50,51,52,53,54,55,56,57,58,59,60
2A StopGo,-21.5%,2.0%,-14.2%,3.7%,?,18.9%,-9.0%,-2.3%,-24.8%,19.3%,-22.5%,9.3%,-6.5%,?
LASV entry inh,?,-3.1%[46.1 µM],-25.9%[46.1 µM],4.0%[46.1 µM],1.7%[46.1 µM],1.5%[46.1 µM],2.1%[46.1 µM],-4.3%[46.1 µM],-25.0%[46.1 µM],?,24.0%[46.1 µM],10.9%[46.1 µM],-9.0%[46.1 µM],12.8%[46.1 µM]

61) CCN1CCC(N(Cc2ccc3c(c2)OCO3)C(=O)Nc2ccccc2OC)CC1
62) Cc1ccc(CNC(=O)C(C(C)C)N2Cc3ccccc3C2=O)cc1 (stereo not drawn)
63) COc1ccc(C)cc1NC(=O)COCc1cc(-c2cccs2)on1
64) CCc1ccc(CNC(=O)C2CCCN(c3nn4cc(-c5ccc(F)cc5)nc4s3)C2)cc1 (stereo not drawn)
65) CC(=O)c1ccc(NC(=O)COCc2cc(-c3ccc(F)cc3)on2)cc1
66) O=C(Cn1c(-c2cccs2)cc2ccccc21)N1CCN(c2ccc(Cl)cc2)CC1
67) COc1cc(NC(=O)COCc2cc(-c3ccc4c(c3)OCO4)on2)cc(OC)c1
68) COc1ccc(NC(=O)NC(C)c2c(-n3cccc3)sc3c2CCN(C)C3)c(OC)c1 (stereo not drawn)
69) CCOC(=O)Cc1ccc(NC(=O)N(Cc2ccc(OC)cc2)C2CCN(C(C)=O)CC2)cc1
70) CCN(C(=O)C1CCN(c2ncnc3c2nc2n3CCCCC2)CC1)c1cccc(Cl)c1

entry no.,61,62,63,64,65,66,67,68,69,70
2A StopGo,-19.2%,-20.9%,-10.6%,?,-13.2%,-16.2%,-18.0%,4.2%,-12.6%,?
LASV entry inh,-6.3%[46.1 µM],1.0%[46.1 µM],0.6%[46.1 µM],18.5%[46.1 µM],15.3%[46.1 µM],-4.1%[46.1 µM],2.8%[46.1 µM],-0.8%[46.1 µM],4.2%[46.1 µM],-9.5%[46.1 µM]

71) CCOc1ccc(CNC(=O)CCS(=O)(=O)c2cc3c(cc2Cl)NC(=O)CO3)cc1OC
72) O=C(Cn1c(-c2cccs2)cc2ccccc21)NCCc1ccc(Cl)cc1
73) CCOC(=O)C1=C(CN2CCN(c3cccc(OC)c3)CC2)NC(=O)NC1c1ccc(OC)cc1 (stereo not drawn)
74) CC1CCN(C(=O)Cn2c(-c3cccs3)cc3cc(Cl)ccc32)CC1
75) COC(=O)c1ccccc1NC(=O)c1ccc(CN2CC(=O)N3CCCCC3C2=O)cc1 (stereo not drawn)
76) CCN(c1cccc(C)c1)S(=O)(=O)c1cc2c(cc1C)n(C)c(=O)c(=O)n2C
77) COc1cc(OC)c(N(C)C(=O)C2CCCN(c3ncnc4c3nc3n4CCCCC3)C2)cc1Cl (stereo not drawn)

entry no.,71,72,73,74,75,76,77
2A StopGo,-8.0%,-3.2%,-22.0%,-10.9%,-23.4%,-24.2%,?
LASV entry inh,0.8%[46.1 µM],8.7%[46.1 µM],-13.5%[46.1 µM],-3.3%[46.1 µM],-0.4%[46.1 µM],-20.8%[46.1 µM],?
